# Assay outcomes: PubChem BioAssay, Broad Institute
# HepG2 viability: HepG2 cell cytotoxicity, dose response, cytotoxicity control, ATP luminescence, cherry-pick, activator set 2 (AID 1053143) | HepG2 viability, CellTiter-Glo ATP luminescence, 72 h | AC50 in µM for hits, for the others activity change, negative = cytotoxicity, % at the top dose, mostly 26 µM | hit rate 3.7% among 3,400;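 active = fitted AC50 at most twice the highest valid dose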;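 note: 0 = neutral control and -100 = positive control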
# The depositor's hits bear a star; [ ] = remark or other dose.
# Start of the listing, in advance (five entries):
smiles | HepG2 viability
CC(C)S(=O)(=O)c1cnc(N2CCOCC2)nc1N | -4%
CCOC(=O)c1sc(S(C)(=O)=O)c2c1CCc1conc1-2 | -1%
O=C(Nc1cccnc1Cl)c1cc(-c2ccco2)on1 | 6%
Cc1[nH]n(-c2ccccc2)c(=O)c1N=Nc1ccc2c(c1)OCO2 | -16%
O=C(NCc1nnc(SCC(=O)N2CCCc3ccccc32)o1)c1ccco1 | -6%

# All compounds of this part, from the first entry:
smiles | HepG2 viability
CC(C)S(=O)(=O)c1cnc(N2CCOCC2)nc1N | -4%
CCOC(=O)c1sc(S(C)(=O)=O)c2c1CCc1conc1-2 | -1%
O=C(Nc1cccnc1Cl)c1cc(-c2ccco2)on1 | 6%
Cc1[nH]n(-c2ccccc2)c(=O)c1N=Nc1ccc2c(c1)OCO2 | -16%
O=C(NCc1nnc(SCC(=O)N2CCCc3ccccc32)o1)c1ccco1 | -6%
O=C1/C(=C/c2cccs2)CCC1C1CCCC1 (stereo not given) | -11%
CC1(C)CC(=O)c2cnc(N3CCc4ccccc43)nc2C1 | -18%
O=C(N/N=C/c1ccccc1Cl)c1cccc(F)c1 | -19%

# Arranged by number of heavy atoms (falling): part of the list above
smiles | HepG2 viability
O=C(NCc1nnc(SCC(=O)N2CCCc3ccccc32)o1)c1ccco1 | -6%
Cc1[nH]n(-c2ccccc2)c(=O)c1N=Nc1ccc2c(c1)OCO2 | -16%
CC1(C)CC(=O)c2cnc(N3CCc4ccccc43)nc2C1 | -18%
CCOC(=O)c1sc(S(C)(=O)=O)c2c1CCc1conc1-2 | -1%
O=C(N/N=C/c1ccccc1Cl)c1cccc(F)c1 | -19%
O=C1/C(=C/c2cccs2)CCC1C1CCCC1 (stereo not given) | -11%

# Other entries:
smiles | HepG2 viability
COc1ccc2cc(CCNC(=O)c3ccco3)c(=O)[nH]c2c1 | 12%
O=C(CCCCn1c(=O)[nH]c2ccsc2c1=O)NCCc1ccccc1 | -18%
CN(C)c1ccc(-c2nnc(-c3cccs3)o2)cc1 | -10%
COc1ccc(NC(=O)CSc2ccccn2)cc1 | -3%
CC1CCN(c2ccc3c(c2)S(=O)(=O)c2ccccc2C3=O)CC1 | -12%
O=C(O)CCn1nnc2ccccc21 | 19%
Nc1ccc(O)c2c(=O)cc(-c3ccccc3Cl)oc12 | 45%
Cc1cccc(C)c1NC(=O)CN | -15%[12 µM]
O=C(c1cc(-c2ccc(O)cc2)on1)N1CCCCCC1 | -8%[12 µM]
COc1ccc2sc(NC(=O)CC(C)C)nc2c1 | -13%
O=C(Nc1ccc2ncccc2c1)c1cccc(Br)c1 | -3%[12 µM]
Nc1cccc(C(=O)OCC(=O)c2ccccc2)c1 | -6%
O=C(Nc1ccon1)c1ccc(OC2CCCC2)cc1 | -8%
COc1cc(/C=N/NC(=O)CNC(=O)c2ccccc2)ccc1OC(=O)c1cccs1 | -19%
O=C(/C=C/c1ccccc1)c1c[nH]c2ccccc12 | -7%
CCOC(=O)c1c(C)n(C)c2c(C)cc(O)c(OC(C)=O)c12 | -19%
O=c1cc(-c2cccs2)oc2ccc(Cl)cc12 | -14%
COc1cccc(NC(=O)c2csc3c2CCCC3)c1 | -22%
O=C(Nc1cccnc1Cl)c1cc2ccccc2o1 | -6%
Fc1cccc(-c2nnn3c2nc(Cl)c2ccccc23)c1 | -24%
COc1ccc(N=Cc2nc(-c3ccccc3)oc2OC(=O)c2ccccc2)cc1 | -10%
Nc1ccccc1NC(=O)c1ccccc1 | 18µM*
Cc1ccc(C(=O)NC2CCC(C)CC2)s1 (stereo not given) | -11%
COc1ccc(-c2cc3cc4c(cc3cn2)OCO4)cc1 | 9%
Cc1cccc(NC(=O)CNC(=O)COc2ccc(C(=O)c3ccc(F)cc3)cc2)c1C | -18%
O=C(Nc1ccc(-c2nc3cccnc3s2)cc1)c1cccnc1Cl | -9%
CC(=O)Nc1ccc(C(=O)COC(=O)C2CC2C)c(F)c1 (stereo not given) | -5%
COc1ccc(-n2cc3ccc([N+](=O)[O-])cc3n2)cc1 | 8%
O=C(Nc1ccccn1)C(=O)Nc1ccccn1 | -5%
Cc1cc2oc3ccc(NCCCn4ccnc4)cc3c(=O)c2cc1C | -5%[6 µM]
Cc1cc(NC(=O)COc2ccc3ccccc3c2Br)no1 | 6%
Cc1ccnc(NC(=O)c2ccc(S(=O)(=O)N3CCCCCC3)cc2)c1 | -1%
CCC(=O)Nc1cc(=O)[nH]c2nc(-c3ccc(Cl)cc3)nn12 | -7%
CCc1ccccc1Nc1nc(N)nc(CSCC(=O)Nc2ccc(C)c(C)c2)n1 | -11%
CC1CCN(C(=O)c2cc3c(ccc4ccccc43)o2)CC1 | -14%
c1cnc(N2CCN(c3ccc4ccccc4n3)CC2)nc1 | 0%
CNC(=O)c1csc(-c2ccc(C)cc2)n1 | 7%
COc1ccc(/C=C/C(=O)c2ccccc2)c(OC)c1 | 4%
COc1ccc(OC)c(NC(=O)NCCc2cccc(Cl)c2)c1 | 0%
COc1cccc(-c2nc(-c3ccncc3)no2)c1 | -18%
C(=N\Nc1nc2ccccc2[nH]1)/c1cccc2cccnc12 | 26µM*
CCOc1ccc(-c2nc(-c3cccnc3)no2)cc1 | -21%
CC(=O)Nc1ccc(NC(=O)CN(c2ccccc2Cl)S(C)(=O)=O)cc1 | -15%
Fc1ccc2nc3[nH]c4ccccc4c3nc2c1 | -12%
CC(=O)Nc1ccc2nc(-c3ccccn3)[nH]c2c1 | -14%
C[C@@H]1ON(C)[C@H]2C[C@H]3c4cc(-c5cc6ccccc6o5)ccc4CCN3C[C@@H]12 | -1%
O=C(N/N=C/c1ccc(Br)cc1)c1ccc(Br)o1 | 12%
CCc1ccc(C2=NN(S(C)(=O)=O)C(c3cccs3)C2)cc1 (stereo not given) | -21%
Cc1ccc(N/C=C/C(=O)c2ccco2)c(O)c1 | -15%
CCCn1c(-c2ccc[nH]c2=O)nc2cc(C)c(C)cc21 | -27%
Clc1cccc(CNc2ccn3nc(-c4cccs4)cc3n2)c1 | -20%
O=C(Nc1ccc(NC(=O)C2CC2)nc1)c1cnccn1 | -10%
O=C(COC(=O)c1ccc(S(=O)(=O)N2CCOCC2)cc1)NC1CCCCCCC1 | -13%
COc1cccc(C(=O)Nc2cc3c(cc2Cl)OCCCO3)c1 | -18%
COc1cccc(NC(=O)c2ccc3c(c2)N(C)CCS3)c1 | 26µM*
CCCc1cc(C(=O)Nc2ccc(CC)cc2)no1 | -11%[12 µM]

# More records.
smiles | HepG2 viability
COc1ccc(-c2ccc(SCC(=O)Nc3nnc(C)s3)nn2)cc1 | -6%
CC(C)CC1C(C#N)=C(N)Oc2n[nH]c(-c3cccs3)c21 (stereo not given) | -21%[12 µM]
O=C(Nc1ccc(Cl)cc1Cl)c1ccc2c(c1)OCCO2 | 0%
CCc1ccc(OCC(=O)O/N=C(\N)c2ccccn2)cc1 | 4%
COc1ccccc1OCC(=O)O/N=C(\N)c1ccccn1 | 39%
O=[N+]([O-])c1ccc(-c2cn(-c3ccccc3)c(=S)[nH]2)cc1 | -22%
CCCC(=O)Nc1ccc(C(=O)COC(=O)C2CC2C)cc1 (stereo not given) | -14%
C=CCn1c(C)cc(C(=O)CSc2nc3ccccc3o2)c1C | -20%
O=C(CCc1ccccc1)Nc1ccc2ccccc2n1 | 128%
COc1ccccc1C1=NOC(CN2C(=O)c3ccccc3S2(=O)=O)C1 (stereo not given) | 0%
CCC1CCCCN1S(=O)(=O)c1ccc(NC(=O)C2CC(=O)N(C(C)(C)C)C2)cc1 (stereo not given) | -3%
O=C(Nc1ccc2ccccc2c1)c1ccc(Cl)cc1Cl | -13%
Cc1ccc(NC(=O)c2sc3nc(C)cc(C)c3c2N)cc1 | -3%
Cc1ccnc(NC(=O)CNC(=O)COc2ccccc2)c1 | -24%
CCOc1ccccc1-n1nnnc1SCC(=O)O | -23%
COc1ccc(-c2cn(Cc3ccc(C(N)=O)cc3)c(-c3ccncc3)n2)cc1 | -26%
O=C1N(Cc2cccc(Cl)c2)C[C@@H]2C[C@@H](c3ccccn3)N3CCC[C@@]123 | -1%
COc1ccc(C(=O)c2oc3ccc(OC)cc3c2N)cc1 | -12%
O=c1c2ccccc2c(=O)n(-c2ccccc2)n1-c1ccccc1 | -7%
O=C1CCC(c2ccccc2)c2ccccc21 (stereo not given) | -6%
O=[N+]([O-])c1ccc2nc(-c3ccc(Cl)cc3)n(OCc3ccccc3)c2c1 | -18%
O=c1[nH]c2ccccc2nc1/C=C(\O)c1cccs1 | -4%
O=C(COc1ccc(Cl)cc1Cl)Nc1ccccc1F | -16%
O=c1oc2ccccc2cc1-c1nc2ccccc2o1 | -15%
c1coc(CSc2ncnc3c2oc2ccccc23)c1 | -11%
O=C(NC1=NCCS1)c1cccc(Br)c1 | -6%
CCOC(=O)Nc1ccc2c(c1)C(=NO)c1ccccc1-2 | -17%
Cc1ccc(NC(=O)CC2SC(=O)N(c3ccccc3)C2=O)cc1 (stereo not given) | -4%
Cc1cccc(NC(=O)Nc2ccc3c(c2)OCO3)n1 | -21%
CCCOc1ccc(-c2csc3nc[nH]c(=O)c23)cc1 | -13%
Cc1cc(-c2nc3ccccc3c(=O)o2)ccc1[N+](=O)[O-] | -10%
Cc1cccc(NC(=O)Nc2ccc(C)c(C)c2)n1 | -14%
S=c1[nH]nc(-c2ccncc2)n1/N=C/c1cn(-c2ccccc2)nc1-c1ccccc1 | -6%
COc1ccccc1N=Cc1c(O)c2ccccc2oc1=O | -8%
COc1ccc2[nH]cc(/C=C/C(=O)c3ccccc3)c2c1 | -18%
NC(=O)C1CC(=O)N(c2ccc(OCc3ccc(Cl)c(Cl)c3)cc2)C1 (stereo not given) | -1%
Cc1cc(Cl)ccc1OC(C)C(=O)Nc1ccccc1N1CCOCC1 (stereo not given) | 9%
Cc1ccc(C(=O)NCCCc2ccccc2)s1 | -33%
COc1ccc(N=NC2=C(O)CC(C)(C)CC2=O)cc1 | -13%
O=C(N=Nc1c(O)[nH]c2ccccc12)c1ccc2c(c1)OCO2 | -10%
COc1cc(C=O)ccc1OCc1ccc(Cl)nc1 | 11%
COc1ccc(-c2cc3cc(OC)c(OC)cc3cn2)cc1 | -4%
O=C(Nc1ccccc1Cl)C(=O)c1cn(CC(=O)N2CCOCC2)c2ccccc12 | -4%
S=c1nc(-c2ccccc2)oc2c1CCCC2 | -16%
Cn1c(SCc2c(F)cccc2Cl)nnc1-c1cnccn1 | -11%
COc1ccccc1C(=O)COC(=O)c1ccc(N(C)C)cc1 | -11%
Cc1sc(NC(=O)C2CCCCC2)c(C#N)c1-c1ccccc1 | -3%
CC(=O)Nc1ccc(C(=O)COC(=O)C2CC2)c(F)c1 | -9%
CSc1ccc(/C=N/NC(=O)c2cc(O)cc(O)c2)cc1 | -5%[6 µM]
Cn1cccc1C(=O)Nc1ccc(N2CCOCC2)cc1 | -19%
c1ccc2sc(-c3ccncc3)nc2c1 | 10%
O=C(Nc1cccnc1)c1cc(-c2ccc(Br)cc2)on1 | -3%
c1ccc(-c2cc3cc4c(cc3cn2)OCO4)cc1 | -11%
Cc1cc(C)c(C#N)c(N2CCSCC2)n1 | -2%
COC(=O)CCc1sc(Nc2ccccc2)nc1-c1ccc(OC)cc1 | -13%
Cn1cc(CCNC(=O)c2ccc3nc(Cc4ccccc4F)oc3c2)cn1 | -3%

# Later entries:
smiles | HepG2 viability
O=C(NC(=O)c1ccccc1)Nc1ccccc1O | -15%
Cc1cccc(NC(=O)CCSc2ccccc2)c1C | 0%
Nc1ccccc1-n1nc2ccc3ccccc3c2n1 | -22%
CC(C)Sc1nc2ccccc2n1CC(N)=O | -2%
Cc1ccnc(NC(=O)c2cc3cc(F)ccc3s2)c1 | 5%
CN=c1scc(-c2cc(OC)ccc2OC)n1/N=C/c1c(C)[nH]c2ccccc12 | 12%
COc1ccccc1OCC(=O)Nc1nc(C)c(C)s1 | -1%
Nc1[nH]n(-c2ccccc2)c(=O)c1N=Nc1ccccc1[N+](=O)[O-] | -4%
Cc1sc2ncnc(Nc3ccc(O)cc3)c2c1C | -3%
CC1CCCC(NC(=O)c2ccc3c(c2)OCCO3)C1C (stereo not given) | 3%
CCn1ccc(C(=O)Nc2ccc(Cl)cn2)n1 | 0%
O=C(Nc1ccccc1)c1ccc(-c2ccc(Br)cc2)o1 | -9%
COc1cccc(/C=C2\Oc3ccc(O)cc3C2=O)c1O | -5%
O=C(N/N=C/c1ccc(OC(=O)c2ccccc2)cc1)c1cccc(O)c1 | 1%
CCOC(=O)C1CCN(C(=O)CN2C(=O)NC3(CCCCC3)C2=O)CC1 | 2%
O=C(c1cnn(-c2cccc(F)c2)c1)c1ccccc1O | -10%
COc1ccc(/C=C/c2ccncc2)cc1 | -3%
COc1cnn(-c2ccccc2)c(=O)c1OC | -7%
Cc1cnc(NC(=O)CCCNC(=O)c2ccc(Cl)cc2)s1 | -12%
CCn1c(SCC(=O)c2ccc(Cl)cc2)nnc1C(C)C | 1%
CCn1c(SCC(=O)c2ccccc2)nnc1-c1cnccn1 | -8%
O=C(/C=C/c1cccc2ccccc12)N1CCOCC1 | -2%
c1cc2cc(-c3c(-c4ccc5c(c4)OCO5)noc3-c3ccsc3)ccc2[nH]1 | -26%
Cn1c(COc2ccccc2)nc2ccccc21 | -7%
O=C(Nc1ncccc1O)c1cc2ccccc2o1 | 26µM*
COc1ccccc1Cc1nc(-c2cccnc2)no1 | -1%
O=C(Nc1nnc(-c2ccccc2F)s1)c1ccccc1F | -7%
O=C(Nc1ccccc1)C(=O)Nc1cccnc1 | -20%
CC(C)C(OC(=O)C1=Cc2ccccc2OC1)C(=O)NCC1CCCO1 (stereo not given) | -10%
CCOc1c2ccc(C(=O)NCCc3cccs3)cc2nn1CC | -4%
COc1cccc(COc2ccc3c(C)cc(=O)oc3c2)c1 | 0%
O=C1c2ccccc2NC(c2ccc(Br)o2)N1O (stereo not given) | -17%

# An excerpt; rates above refer to the full screens.
